Menin-MLL FL inh: qHTS Assay for Inhibitors Targeting the Menin-MLL Interaction in MLL Related Leukemias: Competition With Fluorescein Labeled MLL-derived Peptide. FP activity change, % at 61.4 µM. 290,000 tested, under 10 active. Fluorescence polarization, fluorescein-MLL peptide displacement from menin; inconclusive = falling polarisation curve, or a change in total fluorescence; inactive = total fluorescence flat and polarisation flat or rising; no compound was filed as active; the % refers to the polarisation; negative = inhibition;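 also: % of control where 0% means no effect; inhibitors lower the polarisation; unlabelled MLL peptide was the positive control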
Sfp inh: qHTS Assay for Inhibitors of Bacillus subtilis Sfp phosphopantetheinyl transferase (PPTase) | Potency, µM, for the others: max response, negative = inhibition, hits mostly inhibitors | hit rate 3.5% among 310,000 | 4'-phosphopantetheinyl transferase ffp (Bacillus subtilis), Q9F4F7 | Biochemical Sfp PPTase activity, qHTS; active = well fitted inhibition curve with a large enough effect; inconclusive = small, poorly fitted or top-dose-only effect, or another doubt; inactive = no such curve, though single readings can be large or run the other way;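 also: the enzyme is Sfp with the accession as filed and its product quenches rhodamine fluorescence; potency is read from the fitted curve at half-maximal effect; 0% = enzyme reaction without inhibitor and -100% = no enzyme wells; top concentration of the series not given in the record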
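Step 1, compound plus 15 nM Sfp-PPTase, 15 min, room temperature. Step 2, add rhodamine-CoA (5 uM) and BHQ-2-YbbR (12.5 uM). Step 3, read 525/598 nm fluorescence at 0 and 30 min.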
Active calls of the source: *; ? = inconclusive; . = not tested or not shown; & = joins results of further samples; ! = repeats disagree; [ ] = remark or other dose.

SMILES	Menin-MLL FL inh	Sfp inh
N[C@@H](CCS(=O)O)C(=O)O	.	40µM*!
CN(C)CCc1c[nH]c2ccc(CC3COC(=O)N3)cc12 (stereo unspecified)	.	16%
CNc1ncnc2c1ncn2[C@@H]1O[C@H](COP(=O)(O)O)[C@@H](O)[C@H]1O	.	-2%
N[C@](CC1c2ccccc2Oc2ccccc21)(C(=O)O)[C@H]1C[C@@H]1C(=O)O	.	?
COc1ccc(CCCOC(Cn2ccnc2)c2ccc(OC)cc2)cc1 (stereo unspecified)	.	-14%&10%
CC(N)(C(=O)O)c1ccc(S(=O)(=O)O)cc1 (stereo unspecified)	.	50µM*
NC(C(=O)O)[C@H](O)C(=O)O (stereo partly specified)	.	56µM*
O[C@H]1[C@H]2c3cc4c(cc3CN3CCC(=C[C@@H]1O)[C@H]23)OCO4	.	4%
C[C@H](CCC(=O)NCC(=O)O)C1CC[C@H]2[C@H]3C(C[C@H](O)[C@]12C)[C@@]1(C)CC[C@@H](O)C[C@H]1C[C@H]3O (stereo partly specified)	.	14%
CC(O)[C@@H](N)C(=O)O (stereo partly specified)	.	?
Cn1cnc2nc(NCCO)nc(NCc3ccccc3)c21	.	5%
CCC(=O)NC1Cc2ccccc2C(c2ccccc2)C1 (stereo unspecified)	.	-6%
O=C(O)CCC/C=C\C[C@@H]1C(/C=C/[C@@H](O)COc2cccc(C(F)(F)F)c2)[C@@H](O)C[C@@H]1O (stereo partly specified)	.	-6%
NCCn1oc(=O)[nH]c1=O	.	27%
CCCN(C/C=C/I)C1CCc2cccc(O)c2C1 (stereo unspecified)	.	-13%
CC(C)C[C@H](NC(=O)[C@H](CCCCN)NC(=O)[C@H](CCCNC(=N)N)NC(=O)[C@H](C)NC(=O)[C@H](CO)NC(=O)[C@H](CCCCN)NC(=O)[C@H](CCCNC(=N)N)NC(=O)[C@H](C)NC(=O)CNC(=O)[C@@H](NC(=O)[C@H](Cc1ccccc1)NC(=O)CNC(=O)CNC(=O)[C@@H](N)Cc1ccccc1)[C@H](C)O)C(=O)N[C@@H](C)C(=O)N[C@@H](CC(N)=O)C(=O)N[C@@H](CCC(N)=O)C(=O)O	.	14%
Cc1c2oc3c(C)ccc(C(=O)NC4C(=O)NC(C(C)C)C(=O)N5CCCC5C(=O)N(C)CC(=O)N(C)C(C(C)C)C(=O)OC4C)c3nc-2c(C(=O)NC2C(=O)NC(C(C)C)C(=O)N3CCCC3C(=O)N(C)CC(=O)N(C)C(C(C)C)C(=O)OC2C)c(N)c1=O (stereo unspecified)	.	0%
CC(N)(C(=O)O)c1cccc(CC(=O)O)c1 (stereo unspecified)	.	-22%
C=C(C)[C@@H]1CC[C@]2(C(=O)O)CC[C@]3(C)[C@H](CCC4[C@@]5(C)CC[C@H](O)C(C)(C)[C@@H]5CC[C@]43C)[C@@H]12 (stereo partly specified)	.	24%
O=C(/C=C/c1ccccc1)c1cccs1	.	-24%
O=S(=O)(O)c1ccc(Nc2ncnc3c2ncn3[C@@H]2O[C@H](CO)[C@@H](O)[C@H]2O)cc1	.	24%
CC(=O)NC1C(OC2OC(CC(O)C3OC([N+]4=CCC(=O)NC4=O)C(O)C3O)C(O)C(O)C2NC(=O)/C=C/CCCCCCCCC(C)C)OC(CO)C(O)C1O (stereo unspecified)	.	-6%
Nc1ncnc2c1ncn2[C@@H]1O[C@H](COP(=O)(O)OP(=O)(O)OP(=O)(O)OP(=O)(O)OC[C@@H]2O[C@H](n3cnc4c(N)ncnc43)[C@@H](O)[C@H]2O)[C@@H](O)[C@H]1O	.	12%
NC(C(=O)O)c1cc(O)cc(O)c1 (stereo unspecified)	.	?
CC(N)CCCP(=O)(O)O (stereo unspecified)	.	-12%
COc1ccccc1N1CCN(CCn2c(=O)c3c(c4ccccc4n3C)n(C)c2=O)CC1	.	15%&-20%
Nn1cc(Br)c(=O)[nH]c1=O	.	-26%
CN(C(Cc1ccc(OS(=O)(=O)c2cccc3cnccc23)cc1)C(=O)N1CCN(c2ccccc2)CC1)S(=O)(=O)c1cccc2cnccc12 (stereo unspecified)	.	8%&17%
CC(C)C[C@H](N)C(=O)N[C@H](C(=O)N[C@H](C(=O)N[C@@H](Cc1ccc(O)cc1)C(=O)N1CCC[C@H]1C(=O)N[C@@H](Cc1c[nH]c2ccccc12)C(=O)N[C@H](C(=O)N[C@@H](CCC(N)=O)C(=O)N[C@@H](CCCN=C(N)N)C(=O)O)[C@@H](C)O)C(C)C)C(C)C	.	-5%
CCCCC/C=C\C=C\[C@H](O)CCCCCCCC(=O)O	.	24%
CCC(C)C1NC(=O)C(CCNCS(=O)(=O)O)NC(=O)C(NC(=O)C(CCNCS(=O)(=O)O)NC(=O)C(NC(=O)C(CCNCS(=O)(=O)O)NC(=O)CCCCC(C)C)C(C)O)CCNC(=O)C(C(C)O)NC(=O)C(CCNCS(=O)(=O)O)NC(=O)C(CCNCS(=O)(=O)O)NC(=O)C(C(C)CC)NC1=O (stereo unspecified)	.	-33%
CC1=C(/C=C/C(C)=C/C=C/C(C)=C\CO)C(C)(C)CCC1	.	-7%
COc1ccc(CC(N)C(=O)NC2C(O)[C@H](n3cnc4c(N(C)C)ncnc43)O[C@@H]2CO)cc1 (stereo partly specified)	.	-8%
COc1cc2cc3c4cc(OC)c(OC)cc4cc[n+]3c(C)c2cc1OC	.	15%&16%
C/C=C/C/C=C/CCC(=O)[C@H]1O[C@H]1C(N)=O	.	7%
COC(=O)C[C@H](NC(=O)[C@H](C)NC(=O)[C@@H](NC(=O)OCc1ccccc1)C(C)C)C(=O)CF	.	29%
CCCCN(CC)CCOc1cccc2ccccc12	.	?
CCC(N)(C(=O)O)c1ccc(C(=O)O)cc1 (stereo unspecified)	.	79µM*
C[C@H](CCC(=O)O)C1CC[C@H]2C3CC[C@@H]4C[C@H](O)CC[C@]4(C)C3C[C@H](O)[C@]12C (stereo partly specified)	.	23%
C[n+]1ccc(/C=C/c2ccc3ccccc3c2)cc1	.	-14%
N[C@H](C(=O)O)[C@H]1C[C@H]1C(=O)O	.	-13%
CNC(=O)[C@H]1O[C@@H](n2cnc3c(NCc4cccc(I)c4)ncnc32)[C@H](O)[C@H]1O	3.4	.
CC1(C)CCC=[N+]1[O-]	2.3	.
O=c1onc2n1-c1cc(Br)ccc1OC2	0.0	.
CN(C)c1nc2c(Br)c(Br)c(Br)c(Br)c2[nH]1	1.9	.
NC(=O)C1=CN(C2OC(COP(=O)(O)OP(=O)(O)OC[C@H]3O[C@@H](n4cnc5c(N)ncnc54)[C@H](OP(=O)(O)O)[C@H]3O)C(O)C2O)C=CC1 (stereo partly specified)	-2.9	.
Nc1nc(Cl)nc2c1ncn2[C@@H]1O[C@H](CO)[C@H](O)[C@H]1O	3.4	.
OCC1NCC(O)C(O)C1O (stereo unspecified)	2.2	.
CC(=O)[C@H]1CCC2C3CC=C4C[C@@H](OS(=O)(=O)O)CC[C@]4(C)C3CC[C@@]21C (stereo partly specified)	1.2	.
O=c1cc(-c2ccccc2)[nH]c2nc(Cl)ccc12	4.9	.

Single records, as listed above. Screens in order: Menin-MLL FL inh	Sfp inh
`CN(C)c1nc2c(Br)c(Br)c(Br)c(Br)c2[nH]1` in the list: 1.9	.
`CC1(C)CCC=[N+]1[O-]` in the list: 2.3	.
`CNC(=O)[C@H]1O[C@@H](n2cnc3c(NCc4cccc(I)c4)ncnc32)[C@H](O)[C@H]1O` in the list: 3.4	.
`O=c1onc2n1-c1cc(Br)ccc1OC2` in the list: 0.0	.
`OCC1NCC(O)C(O)C1O` (stereo unspecified) in the list: 2.2	.

(continued)
SMILES	Menin-MLL FL inh	Sfp inh
NCC(O)(CS(=O)(=O)O)c1ccc(Cl)cc1 (stereo unspecified)	5.8	.
CCCC1O[C@@H]2C[C@H]3[C@@H]4CCC5=CC(=O)C=C[C@]5(C)C4[C@@H](O)C[C@]3(C)[C@]2(C(=O)CO)O1 (stereo partly specified)	5.6	.
COc1cc(OC)c(/C=C2/C(=O)Nc3ccccc32)c(OC)c1	2.0	.
CCCC(=O)NCCc1c2n(c3ccc(OC)cc13)Cc1ccccc1-2	1.0	.
NC(Cc1cccc(-c2ccccc2CP(=O)(O)O)c1)C(=O)O (stereo unspecified)	3.7	.
[Li+]	3.8	.
Nc1nc(SCc2ccc([N+](=O)[O-])cc2)c2ncn([C@@H]3O[C@H](CO)[C@H](O)[C@H]3O)c2n1	-7.7	.
COc1ccc(NC(=O)/C=C/c2ccc(Cl)cc2)cc1	3.1	.
CC(N)=NCCCC(N)C(=O)O (stereo unspecified)	-0.1	.
CCOC(=O)C12CC1/C(=N/O)c1ccccc1O2 (stereo unspecified)	0.5	.
CCCCC[C@H](CC(=O)NO)C(=O)N[C@H](C(=O)N1CCC[C@H]1CO)C(C)C	-2.1	.
Nc1nc2c(nc(Br)n2C2O[C@H]3COP(=O)(O)O[C@@H]3C2O)c(=O)[nH]1 (stereo partly specified)	4.4	.
O=C1C2C=CC=CC2=NC(=S)N1CCN1CCC(=C(c2ccc(F)cc2)c2ccc(F)cc2)CC1 (stereo unspecified)	-1.8	.
Nc1ncnc2n[nH]c(Nc3ccc(F)cc3)c12	4.0	17%
C=CCC1C=CC(Oc2ccc(OC)cc2)C(COC(=O)c2ccc(Br)cc2)O1 (stereo unspecified)	-8.0[11.7 µM]	1%
C[N+]1(C)CCC[C@@H](OC(=O)C(O)(c2ccccc2)c2ccccc2)C1	-5.7[24.8 µM]	15%
CN(C)c1ccc(CNC(=O)C2(C)C=CCN2C(=O)c2ccccc2)cc1 (stereo unspecified)	-1.4	-2%
CC(C)CO/N=C1/[C@H]2O[C@@H]2[C@@H](O)[C@H]2[C@H]1CCn1c(=O)n(-c3ccccc3)c(=O)n12	6.5[11.7 µM]	21%
CC(C)=CCC/C(C)=C/C=C/C(C)=C/C=C/C(C)=C/C=C/C=C(C)/C=C/C=C(C)/C=C/C=C(\C)CCC=C(C)C	10	?
CC1(C)[C@@H]2CC[C@@]1(C)C(=O)C2	46&-0.5[activator]	-8%&4%
CC(C)=NOC[C@@H](O)COCc1ccco1	1.9[11.7 µM]	2%
COc1ccc(O[C@H]2C=C[C@@H](c3ccccc3)O[C@H]2CO/N=C(/C)CCC(=O)OC[C@@H]2O[C@H](C#Cc3ccccc3)C=C[C@@H]2Oc2ccc(C)cc2)cc1	-0.5[11.7 µM]	5%
CCCn1c(-c2ccc(F)cc2)nc2c(NCCCN(CCO)CCO)nc(C)nc21	0.6	-4%
CC(C)(C)NC[C@@H](O)COc1nsnc1N1CCOCC1	-1.9	8%
c1ccc(-c2n[nH]c3c2oc2ccccc23)cc1	-1.1	-22%
O=C(O)c1ccc(S(=O)(=O)N[C@@H](Cc2ccc(O)cc2)C(=O)O)cc1	1.5	-17%
CCOc1ccc2nc3cc(N)ccc3c(N)c2c1	?	-26%&-39%
C[C@H](N)CCCC(C)(C)O	-0.4[24.8 µM]	11%
O=C(O)CCNC(=O)c1ccc(N=Nc2ccc(O)c(C(=O)O)c2)cc1	-5.0	10%
O=C(O)COc1ccc(CCNS(=O)(=O)c2ccccc2)s1	-0.4	-13%
CCCC[C@H](NC(=O)[C@H](CC(C)C)NC(=O)[C@@H](Cc1c[nH]c2ccccc12)NC(=O)[C@H](Cc1ccccc1)NC(=O)[C@@H](Cc1c[nH]c2ccccc12)NC(=O)[C@H](CC(N)=O)NC(=O)[C@@H](Cc1c(Cl)cccc1Cl)NC(=O)[C@@H]1CCCN1C(=O)[C@H](Cc1ccccn1)NC(=O)[C@@H]1CCCN1C(=O)[C@H](N)CCCCNC(=O)c1cccnc1)C(N)=O	-0.2	-13%
CC(Oc1ccc(O)cc1)(P(=O)(O)O)P(=O)(O)O	?	-8%
CCCCC/C=C\CC1OC1C/C=C\C/C=C\CCCC(=O)O (stereo unspecified)	-4.4	5%&-9%
COC(=O)N1C2=C(c3ccccc3[C@@H]1CC(=O)Nc1ccc(Br)cc1)[C@@H]1C(=O)N(c3ccccc3)C(=O)[C@@H]1[C@H](C)C2	10[11.7 µM]	-17%
CCC(=O)OCC(=O)[C@@]1(OC(=O)CC)[C@H](C)C[C@@H]2[C@H]3CCC4=CC(=O)C=C[C@]4(C)[C@]3(Cl)[C@@H](O)C[C@@]21C	-0.6[24.8 µM]	30%[activator]
CC[C@H](C)[C@H](NC(=O)CNC(=O)[C@@H](NC(=O)[C@@H](NC(=O)[C@H](Cc1ccc(O)cc1)NC(=O)[C@H](CC(C)C)NC(=O)[C@H](C)NC(=O)[C@H](CCC(N)=O)NC(=O)CNC(=O)[C@@H]1CCCN1C(=O)CNC(=O)[C@H](Cc1ccccc1)NC(=O)[C@H](Cc1cnc[nH]1)NC(=O)[C@@H](NC(=O)CNC(=O)[C@H](CCCNC(=N)N)NC(=O)[C@H](CCCNC(=N)N)NC(=O)[C@@H](NC(=O)[C@H](CC(N)=O)NC(=O)[C@@H](N)CS)[C@@H](C)O)[C@@H](C)CC)[C@@H](C)O)[C@@H](C)O)C(=O)O	-1.5	-15%
CC12CC(NC(=O)N1c1cccc(C(=O)NCc3ccccc3)c1)c1ccccc1O2 (stereo unspecified)	-0.4	27%

Screening data (PubChem BioAssay)

Some of the compounds tested; the hit share may differ from the screen's.
